High-throughput results: PubChem, several laboratories
eIF4H FP inh = inhibitors of RNA binding by human eIF4H; eIF4H fluorescence polarization binding assay; actives 0.94% (n = 290,000); inhibition, % at 35 µM; Q15056;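 active = 50% or more with normal probe brightness, or confirmed in later tests; inconclusive = above 50% with abnormal brightness, or retests that disagree; inactive = below 50% or failed in later tests; about a fifth of its hits are not listed in these tables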;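 also: calls also rest on retests at 20 µM and on dose response follow-up; 0% = protein and probe with vehicle and 100% = probe without protein; strong numbers were not always called active; many hits fall short of the cut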
HIV Env fusion = blocks HIV Env-driven cell-cell fusion. HeLa-JRFL Env/CEM21 cell fusion, luciferase. inhibition, % at 12.3 µM. actives 1.1% (n = 360,000). AID 651610;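 active = mean replicate inhibition score of at least 50 and every replicate individually at or above 50; inconclusive = only one of the two criteria met; inactive = mean below 50 and not all replicates reaching 50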;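 also: 0% = plate neutral controls and 100% = maraviroc near 300 nM; one replicate is shown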
CSC inhib = cancer stem cell inhibition | cancer stem cell-like cells viability, luminescence | inhibition, % at 7.5 µM | actives 1.1% (n = 300,000);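 active = mean at 75% or more and at least half the replicates too; inconclusive = mean and replicates disagree; tested in HMLE shEcad cells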;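 also: 0% = median of negative and 100% = median of positive control wells; the first replicate is given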
PABP FP inh = PABP-poly(A) binding inhibition; actives 1% (n = 290,000); inhibition, % at 35 µM; PABP-poly(A) RNA binding, fluorescence polarization;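 active = 50% or more with normal probe brightness, or confirmed in later tests; inconclusive = above 50% with abnormal brightness, or retests that disagree; inactive = below 50% or failed in later tests; about a fifth of its hits are not listed in these tables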;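 also: calls also rest on retests at 20 µM and on dose response follow-up; controls were probe without protein and protein plus probe with vehicle; some compounds called inactive have numbers as strong as hits; many hits fall short of the cut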
Target sequence (P11940 whole entry, looked up): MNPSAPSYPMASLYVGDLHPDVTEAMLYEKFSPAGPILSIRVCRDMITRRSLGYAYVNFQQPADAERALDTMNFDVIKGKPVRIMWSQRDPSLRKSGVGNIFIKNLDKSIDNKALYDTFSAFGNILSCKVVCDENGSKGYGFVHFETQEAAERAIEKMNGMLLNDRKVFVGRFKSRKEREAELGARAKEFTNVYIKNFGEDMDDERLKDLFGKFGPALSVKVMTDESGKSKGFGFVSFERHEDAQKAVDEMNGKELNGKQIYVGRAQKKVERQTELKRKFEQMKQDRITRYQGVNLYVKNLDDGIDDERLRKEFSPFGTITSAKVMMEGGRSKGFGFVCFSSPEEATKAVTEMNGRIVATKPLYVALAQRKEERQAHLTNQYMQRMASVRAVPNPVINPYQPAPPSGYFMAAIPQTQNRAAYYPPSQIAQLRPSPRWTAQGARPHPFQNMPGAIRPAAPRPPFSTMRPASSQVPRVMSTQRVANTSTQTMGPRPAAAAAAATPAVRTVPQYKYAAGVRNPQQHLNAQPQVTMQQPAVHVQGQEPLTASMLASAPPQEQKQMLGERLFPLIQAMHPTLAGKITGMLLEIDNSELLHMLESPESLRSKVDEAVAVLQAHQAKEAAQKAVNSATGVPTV
Rce1 inh = blocks yeast Ras-converting enzyme. yeast membranes, quenched prenylated peptide cleavage fluorescence. calls only. actives 0.27% (n = 290,000). AID 2563;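 active = fall in fluorescence gain of 50% or more versus controls, with final raw signal at or below 3038400; inconclusive = same 50% fall but final raw signal above 3038400; inactive = fall in fluorescence gain under 50%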;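 also: plate controls were neutral control wells for no effect and wells lacking membranes for full effect; tested at 10 µM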
Target sequence (Q03530 whole entry, looked up): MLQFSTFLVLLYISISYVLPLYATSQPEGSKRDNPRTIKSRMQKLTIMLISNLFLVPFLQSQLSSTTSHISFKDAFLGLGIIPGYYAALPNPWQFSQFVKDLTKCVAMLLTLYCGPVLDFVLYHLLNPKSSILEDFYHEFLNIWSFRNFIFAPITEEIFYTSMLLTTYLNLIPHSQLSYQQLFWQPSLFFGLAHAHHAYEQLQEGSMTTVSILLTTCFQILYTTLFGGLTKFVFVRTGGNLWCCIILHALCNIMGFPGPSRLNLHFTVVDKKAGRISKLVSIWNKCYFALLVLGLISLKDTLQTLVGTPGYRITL
MT1-MMP act inh = inhibitors of human MT1-MMP activation. AID 651647. HT1080 RFP-PRO-GFP cells, GFP/RFP ratio fluorescence, overnight; percent of plate control window, DMSO zero. P50281. GFP/RFP ratio change, % at 20 µM. actives 0.061% (n = 360,000);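 active = GFP/RFP ratio change of at least 30% with cell ATP level not reduced by more than half and red fluorescence within 50% of control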; also: strong numbers were not always called active
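system = RFP-PRO-GFP reporter HT1080 cells | dosing = 20 µM single dose, 1% DMSO | timing = overnight cell settling, then overnight compound exposure, 37 °C, 5% CO2 | read-out basis = GFP/RFP fluorescence ratio | controls = DMSO and RFP-L50D-GFP cell wells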
Yeast UUG start = modulators of start codon recognition fidelity in yeast; S. cerevisiae UUG-firefly luciferase reporter, luminescence/redox ratio; actives 0.13% (n = 350,000); activity score, % at 18.7 µM;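 active = replicate mean at a twofold rise or more, about +100% in these data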;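 also: firefly luciferase made from a UUG start codon reports start codon fidelity; reporter light over untreated wells divided by growth signal over untreated wells; some hits fall short of that in this replicate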
eIF4H FP inh retest = second read-out of eIF4H FP inh, no call of its own (marks repeat the call); inhibition, %; compound at 20 µM; confirmation average;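 mean of two retest wells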
PABP FP inh retest = further read-out of PABP FP inh, marked with its call; inhibition, %; compound at 20 µM; confirmation repeats;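 mean of two retest wells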
MT1-MMP act inh RFP = also measured in MT1-MMP act inh; calls as there; RFP signal change, %; measured here: RFP expression control read;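 0 = vehicle wells; hits needed this value within 50% of zero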
Numbers without * were called inactive; i = inactive; ? = inconclusive; . = no result given; & = joins results of further samples. Some of the compounds tested (hit frequency here may not be typical).

SMILES	eIF4H FP inh	HIV Env fusion	CSC inhib	PABP FP inh	Rce1 inh	MT1-MMP act inh	MT1-MMP act inh RFP	Yeast UUG start	others
Cn1c2c(c(=O)n(C)c1=O)C(c1ccc(O)cc1)Nc1ccccc1O2 (stereo not given)	0	.	-8	-2	i	4	7	-10
COc1cc(C)c(C)cc1S(=O)(=O)N1CCN(Cc2ccccc2)CC1	-12	.	52	-4	i	-3	-1	.
COc1ccc(/C=N/OCc2ccc(Br)cc2)c(OC)c1	-12	5	5	1	i	4	4	-14
CCOC(=O)C1=C(C)NC(SCC(N)=O)=C(C#N)C1c1ccncc1 (stereo not given)	-8	14	2	10	i	0&-4	-3&0	-11
COc1cc(CNn2nnnc2N)ccc1OCc1c(Cl)cccc1Cl	-2	-62	-5	-2	i	6	-6	-21
Cc1ccc(C)n1NC(=O)c1cccs1	-9	.	-9	3	i	-11	1	.
Cc1noc(C)c1C(=O)Nc1cccc(S(=O)(=O)N2CCOCC2)c1	.	0	6	.	.	5	0	-16
Cc1ccc(NC(=S)NC(=O)CC2CC(C)(C)OC2=O)cc1 (stereo not given)	-1	9	-6	-3	i	-3	2	7
CN(Cc1cnccn1)Cc1ccccc1OCC(O)CN1CCc2ccccc2C1 (stereo not given)	-11	5	-17	2	i	0	1	0
CCOCCn1c(COc2ccccc2)nc2ccccc21	5	.	7	-7	i	9	-4	-10
Cc1cc(O)c(Sc2ccc(Cl)cc2)c(=O)[nH]1	.	4	4	.	i	2	4	.
NNc1nc2c(Cl)c(Cl)ccc2s1	90	-132	-5	3	i	-12	-6	-23	eIF4H FP inh retest=-4;PABP FP inh retest=-1
O=C(NNc1ccc([N+](=O)[O-])cc1[N+](=O)[O-])c1ccco1	-8	.	-10	2	i	7	-14	-14
CCCOc1ccc(N2C(=O)CC(N3CCOCC3)C2=O)cc1 (stereo not given)	-4	.	2	11	i	-5	-2	-20
CCOC(=O)N1CCN(C(=O)COC(=O)c2oc3ccc(OC)cc3c2C)CC1	-1	-26	-8	-10	i	1	3	5
CCc1ccc(C(=O)Nc2ccc(C)c(NS(C)(=O)=O)c2)cc1	-4	-14	-4	4	i	5	-12	-8
CCOc1nc(C)cc(C)c1S(=O)(=O)c1cccc(C)c1	-13	.	12	-3	i	.	.	.
O=c1cc(-c2cccc([N+](=O)[O-])c2)[nH][nH]1	-2	9	1	0	i	7	3	-17
CCc1ccc(C(=O)Nc2ccc3nc(C)ccc3c2)cc1	2	-63	.	14	i	5	2	-9
CCOC(=O)N(C)c1c(CC)nc2c(OCCC3CCCCC3)cccn12	.	26	.	.	.	2	-11	-17
Cc1[nH]nc2c1/C(=N\O)CCC2	-7	3	-23	7	i	-2	1	.
COc1ccc(C2CC(c3ccc(C(F)(F)F)cc3)=NN2c2ccc(S(N)(=O)=O)cc2)cc1 (stereo not given)	.	-24	.	.	.	-1	-3	-7
COc1cc(C(=O)N2CCN(S(=O)(=O)c3ccc(C)cc3)CC2)ccc1OCc1c(C)noc1C	-6	-69	-10	-5	i	0	-3	5
CN1C(=O)C(C)(C)c2cc(S(=O)(=O)NCC(=O)NCc3ccccc3)ccc21	1	.	-11	4	i	-4	3	-8
O=C(O)c1ccccc1C(=O)Nc1ccc(S(=O)(=O)Nc2nccs2)cc1	.	-13	0	.	.	1	1	-37
CN(CCc1ccccn1)C(=O)c1cccnc1Oc1ccccc1	-3	17	-8	-8	i	-1	-2	-15
N#Cc1c(NC2CCCCC2)nc(-c2ccco2)c2c1CCCC2	-6	.	15	16	i	-6	-3	-18
C=CCN1C(=O)c2ccc(C(=O)N(CC)CC(=O)Nc3ccc(OC)cc3)cc2C1=O	.	8	-16	.	i	0	0	.
CC(=O)N1CCCc2cc(S(=O)(=O)Nc3ccc(C)cc3C)ccc21	-8	.	-15	-9	i	0	-2	8
CC(NS(=O)(=O)c1ccccc1)C(c1cccs1)N1CCN(c2ccccc2)CC1 (stereo not given)	5	.	.	-3	i	-2	-18	3
O=C(c1ccccc1)c1ccc(C(=O)N2CCN(c3ccc(O)cc3)CC2)cc1	.	.	49	.	.	3	-1	-17
N#CCSc1nnc(-c2ccc(S(=O)(=O)N3CCOCC3)cc2)n1CC1CCCO1 (stereo not given)	-5	-53	-17	7	.	2	1	-11
CCOc1ccc(C(NC(=O)c2ccco2)c2ccc(OC)c(OC)c2)cc1 (stereo not given)	-10	-26	-26	-4	i	-3	2	.
NC(=O)c1cccnc1Oc1ccccc1	-4	11	-7	4	i	-3	0	-16
COC(=O)[C@H](CCSC)NC(=O)NCc1ccc(S(N)(=O)=O)cc1	12	-2	-9	6	i	-2	3	-10
CCCCOc1ccc(C2=CSC3=NCCN23)cc1[N+](=O)[O-]	-11	6	38	-2	i	7	-1	-6
CCOC(=O)CN1NC2(CCCCC2)NC1=S	-4	.	-5	20	i	11	5	-10
COCCn1c(SCC(=O)N2CC(=O)Nc3ccccc32)nc2ccccc2c1=O	-8	-9	1	6	i	-6	-2	.
O=C1NN=C(CSc2n[nH]c(=S)s2)CS1	6	-1	-5	6	i	0	1	.
Cn1nccc1NC(=O)Nc1cccc(Cl)c1Cl	-1	-9	0	-2	i	5	-3	.

Brought forward from above: 3 entries, followed by the next part.
SMILES	eIF4H FP inh	HIV Env fusion	CSC inhib	PABP FP inh	Rce1 inh	MT1-MMP act inh	MT1-MMP act inh RFP	Yeast UUG start	others
COCCn1c(SCC(=O)N2CC(=O)Nc3ccccc32)nc2ccccc2c1=O	-8	-9	1	6	i	-6	-2	.
O=C1NN=C(CSc2n[nH]c(=S)s2)CS1	6	-1	-5	6	i	0	1	.
Cn1nccc1NC(=O)Nc1cccc(Cl)c1Cl	-1	-9	0	-2	i	5	-3	.
COc1ccccc1N(CC(=O)NCc1ccccc1)S(C)(=O)=O	-8	.	6	0	i	4	4	-15
N=c1oc2ccc(Cl)cc2cc1C(=O)Nc1ccc(F)cc1	9	-21	-1	2	i	0	0	-4
C[C@H](NC(=O)c1ccc(C(C)(C)C)cc1)C(=O)N1CCC2(CC1)NCCc1[nH]cnc12	.	3	14	.	i	5	4	-19
COc1ccc(C(=O)N2CCCc3ccccc32)cc1Br	4	12	-9	-5	i	0	-6	-7
Cc1ccc(NC(=O)CSc2nc3c(c(=O)[nH]2)CCCC3)cc1C	-9	9	-5	2	i	2	-2	-6
COc1cccc2c1OC[C@@H](CO)[C@H]2N(C)C(=O)Nc1ccc(Cl)cc1Cl	-12	?	9	-3	i	32*	-13*	.
O=C(Nc1nc2ccc(Oc3ccccc3)cc2s1)c1cc([N+](=O)[O-])ccc1N1CCOCC1	4	-23	8	-11	i	3	0	-5
CC(=O)Oc1ccc(-c2ccc(C(=O)NCCc3ccc(S(N)(=O)=O)cc3)cc2)cc1	7	-9	29	-13	i	4	2	2
COc1ccccc1CN1CC(C(=O)NCc2nccn2C)CCC1=O (stereo not given)	-3	-5	-3	15	i	2	5	-20
Cc1cc(C)c2nc(N3C(=O)C(O)=C(C(=O)c4ccco4)C3c3cccc(O)c3)sc2c1 (stereo not given)	.	.	55	.	.	4	7	-6
C=C1C(=O)[C@]23C[C@H]1CCC2[C@@]1(C)C(C[C@@H]3O)[C@](C)(C(=O)O)C[C@H](O)[C@@H]1O (stereo not given in full)	.	5	.	.	.	4	6	-9
CC(CCc1ccccc1)NC(=O)C1CCN(S(=O)(=O)N2CCCCC2)CC1 (stereo not given)	-11	0	10	-3	i	1	-5	-4
OC(CNCCc1ccc(C(F)(F)F)cc1)COc1ccc2ccccc2c1 (stereo not given)	8	27	77*	-4	.	0	1	.
CCOC(=O)C1CCN(Cc2ccc(OCc3ccccc3)c(OC)c2)CC1	13	.	-13	-1	i	1	2	-7
O=C1CN(C(=O)c2ccccc2)c2ccccc2N1	-4	-174	9	-4	i	3	2	-16
CS(=O)(=O)N(CC(=O)N1CCCC1)C1CCCCC1	.	-38	.	.	.	-2	0	-12
CCOC(=O)N1CCC(Nc2ncnc3c2cnn3-c2ccc(Cl)cc2)CC1	-5	.	.	3	i	8	-1	-18
COCCOC(=O)c1sc(=S)n(CCOC)c1N	?	.	.	?	i	-13	6	-1
C=CCn1c(SCC(N)=O)nnc1-c1cnccn1	2	-3	-11	-5	i	7	5	.
COc1cc(CC(=O)OCC(=O)NC2CC2)cc(OC)c1OC	8	2	-12	6	i	1	4	-12

A run of entries of the results above, for reference:
SMILES	eIF4H FP inh	HIV Env fusion	CSC inhib	PABP FP inh	Rce1 inh	MT1-MMP act inh	MT1-MMP act inh RFP	Yeast UUG start	others
COc1ccccc1N(CC(=O)NCc1ccccc1)S(C)(=O)=O	-8	.	6	0	i	4	4	-15
N=c1oc2ccc(Cl)cc2cc1C(=O)Nc1ccc(F)cc1	9	-21	-1	2	i	0	0	-4

(continued)
SMILES	eIF4H FP inh	HIV Env fusion	CSC inhib	PABP FP inh	Rce1 inh	MT1-MMP act inh	MT1-MMP act inh RFP	Yeast UUG start	others
Cc1nn2c(C)c(C(=O)Nc3ccccc3)cnc2c1C#N	2	.	13	4	i	4	-1	4
O=[N+]([O-])c1ccc(N2CCC(O)CC2)nc1	-5	-30	5	-6	i	-2	-1	.
Cc1cccc(NC(=O)C2CCCN2C(=O)OCC(C)C)c1 (stereo not given)	2	7	-12	2	i	-5	2	2
COc1cc(/C=C/C(=O)OCC(=O)N(C)CC(=O)Nc2ccc(F)cc2)ccc1OC(F)F	.	-17	-10	.	.	-3	-1	-2
O=C(NCCc1ccccc1)c1nc(CS(=O)(=O)c2ccc(Cl)cc2)no1	-9	0	-14	3	i	0	-3	-12
CN(C)S(=O)(=O)c1ccc(NC=C(C#N)C#N)cc1	20	-9	3	29	i	-4	2	-10
COc1ccccc1C(=O)NC(=O)COC(=O)c1nccnc1N	.	7	-14	.	.	-1	6	-13
Cc1ccc(C(=O)CN(CCC(=O)O)S(=O)(=O)c2ccc([N+](=O)[O-])cc2)cc1	.	-15	-10	.	.	-1	1	-15
Cc1noc(C)c1S(=O)(=O)Nc1ccc2c(c1)C(=O)N([C@H](C)CO)C[C@H](C)[C@H](CN(C)C(=O)NC(C)C)OCCCC[C@@H](C)O2	.	2	.	.	.	0	3	13&14
c1ccc2sc(NC3=NCN(CC4CCCO4)CN3)nc2c1 (stereo not given)	-4	17	.	2	i	0	-1	.
Cc1c(C(=O)C(=O)N2CCN(C)CC2)c2ccccc2n1C	-7	-8	-7	6	i	6	2	-13
Cc1ccccc1-c1nnn(Cc2cccc(S(=O)(=O)N3CCOCC3)c2)n1	.	.	0	.	.	0	-5	-7
Cc1c(C(=O)N2CCCCCC2)oc2ccccc12	2	17	-12	3	i	-2	-3	-8
Cc1ccc([N+](=O)[O-])cc1NC(=O)CSc1nncc2ccccc12	-25	-5	-6	8	i	1	0	-14
O=C1Cc2cc(NS(=O)(=O)c3ccc(F)cc3)cc3c2N1CCC3	.	-1	-10	.	i	7	1	-2
O=C(O)CN(CCc1ccccc1)S(=O)(=O)c1ccccc1	-5	-6	-9	5	i	2	1	-23
CCN(c1ccccc1)S(=O)(=O)c1ccc(C(=O)NCC(=O)Nc2ccc(F)c(F)c2F)cc1	.	.	-21	.	.	-4	-15	-8
O=C(Nc1ccccc1N1CCCCC1)c1ccc(N2C(=O)c3ccccc3C2=O)cc1	4	14	4	-2	i	8	4	-21
